Polio RdRp inh – poliovirus RdRp elongation inhibitors, primary screen, biochemical, fluorescence polarization, total intensity. poliovirus polymerase elongation; stronger effect = lower value. % elongation, % (compound at 16.7 µg/mL). 150,000 tested, 0.66% active. AID 588519, 2011; in the data active = % elongation below about 90%; also: some results filed as inactive read as strong as hits
Target sequence (P03300 1749-2209 limits assumed): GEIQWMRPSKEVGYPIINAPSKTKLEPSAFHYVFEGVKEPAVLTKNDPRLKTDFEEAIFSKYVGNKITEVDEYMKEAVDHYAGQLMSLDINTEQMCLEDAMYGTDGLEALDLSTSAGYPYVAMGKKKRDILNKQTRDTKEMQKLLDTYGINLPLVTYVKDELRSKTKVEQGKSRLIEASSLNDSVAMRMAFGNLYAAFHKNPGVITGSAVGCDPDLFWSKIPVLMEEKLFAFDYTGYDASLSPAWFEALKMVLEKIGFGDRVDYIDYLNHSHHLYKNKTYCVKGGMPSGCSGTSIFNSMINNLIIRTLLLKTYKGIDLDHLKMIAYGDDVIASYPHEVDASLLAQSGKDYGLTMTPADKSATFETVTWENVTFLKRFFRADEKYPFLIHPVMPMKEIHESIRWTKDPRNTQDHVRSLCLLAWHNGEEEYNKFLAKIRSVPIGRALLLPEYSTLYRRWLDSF
Polio RdRp inh intensity – also measured in Polio RdRp inh; calls as there; % elongation; measured here: total intensity read-out; formula for this scale not given here;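 total fluorescence in place of polarization; lower means less elongation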
An asterisk follows results filed as active. Only part of the results is shown. The share of hits here may be higher or lower than overall.

Order of values – Polio RdRp inh, Polio RdRp inh intensity
Cc1nc2cc(-c3ccccc3)nn2c(C)c1CCC(=O)NCCc1ccccc1
 : 105, 108
CN(Cc1ccccc1)C(=O)C(=O)Nc1ccc2nc3n(c(=O)c2c1)CCCCC3
 : 108, 110
CCOC(=O)CCN(c1ccccc1)S(=O)(=O)c1cc(-c2cc(C)no2)ccc1C
 : 108, 112
CCc1nn2c(=O)cc(COC(=O)c3ccc(NC(=O)c4cccs4)cc3)nc2s1
 : 112, 113
COc1ccc(NC(=O)CSC2=Nc3ccccc3C3=NC(Cc4ccccc4)C(=O)N23)cc1Cl (configuration not stated)
 : 105, 110
CCC(=O)N1c2ccc(S(=O)(=O)CCC(=O)Nc3ccc(Br)c(C)c3)cc2CC1C (configuration not stated)
 : 111, 113
CCOc1ccc(-c2nonc2NC(=O)COc2ccccc2)cc1
 : 102, 95
O=C(Nc1ccc(-c2nc3cc(Cl)ccc3o2)cc1)c1cc(Br)ccc1Cl
 : 105, 100
Cc1cccc2c1-c1sc(C(=O)N3CCN(c4ccccc4)CC3)cc1CO2
 : 106, 109
Cn1ccc2cc(S(=O)(=O)N3CCN(C(=O)Nc4ccccc4F)CC3)ccc21
 : 104, 112

Next results follow:
Order of values – Polio RdRp inh, Polio RdRp inh intensity
O=C(NCc1ccccc1Cl)c1cnc(N2CCOCC2)c2ccccc12
 : 108, 117
Cc1cc(C)cc(OCCSc2nc3ccc(NC(=O)c4ccc5c(c4)OCO5)cc3s2)c1
 : 105, 109
CCC(C(=O)N1CCN(c2cc(C)ccc2C)CC1)n1nc(C)n2c(cc3occc32)c1=O (configuration not stated)
 : 107, 105
Cc1ccc(-c2nn3c(=O)cc(CN4CCN(C(=O)Nc5cccc(C(F)(F)F)c5)CC4)nc3s2)cc1
 : 111, 113
COc1ccc2oc(=O)c(-c3nc4ccc(C)cc4[nH]3)cc2c1
 : 119, 123
COc1ccc(-c2noc(CCC(=O)Nc3ccccc3Cl)n2)cc1OC
 : 101, 92
Cc1nc(N2CCCC2)c2c(C(=O)N3CCN(c4ccc(F)cc4)CC3)c(C)oc2n1
 : 109, 109
CC1CCCN(CCCNC(=O)c2cc(Sc3ccc(F)cc3)nc3ccccc23)C1 (configuration not stated)
 : 106, 108
CCOC(=O)c1cc(C)n(CC2CCC(C(=O)Nc3cc(OC)cc(OC)c3)CC2)c1C (configuration not stated)
 : 114, 105
Cc1ccc(C)c(N2CCN(S(=O)(=O)c3ccc4c(c3)C(C(C)C)C(=O)N4)CC2)c1 (configuration not stated)
 : 104, 102

Other entries.
Order of values – Polio RdRp inh, Polio RdRp inh intensity
COc1ccc(-c2csc3ncnc(Nc4ccc(OC)c(OC)c4)c23)cc1
 : 104, 112
Cc1cccc(NC(=O)Cn2c(=O)n(CCC(C)C)c(=O)c3cccnc32)c1
 : 103, 106
COc1cccc(-c2cc(C(=O)N3CCN(c4ccccc4OC)CC3)no2)c1
 : 104, 106
CCOc1ccc(CNC(=O)CCc2c(C)nn(-c3ccc(N4CCOCC4)nn3)c2C)cc1
 : 108, 109
O=C(CSc1nncn2c1cc1sccc12)Nc1ccccc1C(F)(F)F
 : 103, 96
COc1ccccc1CNC(=O)c1ccc(N2Cc3cccc(OC)c3Oc3ncccc32)s1
 : 109, 113
COC(=O)c1ccc(Nc2nc(-c3ccccc3Cl)nc3ccccc23)cc1
 : 103, 107
CCOC(=O)c1cccc(NC(=O)c2oc3c(c2C)-c2[nH]ncc2CC3)c1
 : 101, 104
O=C(O)c1ccc(NC(=O)c2cn(-c3ccccc3)nc2-c2ccc(Br)cc2)cc1
 : 109, 110
Cc1ccccc1NCc1cccn1-c1nnc(N2CCC(C)CC2)s1
 : 104, 106

Compound profiles, as listed above:
`COc1ccc(-c2csc3ncnc(Nc4ccc(OC)c(OC)c4)c23)cc1` as listed: Polio RdRp inh = 104; Polio RdRp inh intensity = 112
`CC1CCCN(CCCNC(=O)c2cc(Sc3ccc(F)cc3)nc3ccccc23)C1` (configuration not stated) as listed: Polio RdRp inh = 106; Polio RdRp inh intensity = 108
`COc1ccc2oc(=O)c(-c3nc4ccc(C)cc4[nH]3)cc2c1` as listed: Polio RdRp inh = 119; Polio RdRp inh intensity = 123

New compounds follow:
Order of values – Polio RdRp inh, Polio RdRp inh intensity
CCOc1ccccc1NC(=O)c1c(NCc2ccc(OC)c(OC)c2OC)sc2c1CCC(C)C2 (configuration not stated)
 : 107, 102
CN1CCN(C(=O)c2ccc3c(c2)N(Cc2ccc(F)cc2)C(=O)c2ccccc2S3(=O)=O)CC1
 : 106, 107
Cc1nn(CCCC(=O)NCc2cccc(F)c2)c(=O)c2nn(-c3ccccc3)c(C)c12
 : 114, 115
CCC(CC)C(=O)N1c2ccccc2C(C)(c2ccccc2)CC1(C)C (configuration not stated)
 : 107, 113
O=C(Nc1cc2c(cc1C(=O)c1ccc(Br)cc1)OCCO2)c1ccc(Cl)cc1
 : 104, 110
O=C(CN1N=C(c2ccc(Cl)cc2)CCC1=O)NCCc1ccc(Cl)cc1
 : 110, 111
COc1ccc(NC(=O)C2CCN(c3cc(C)nc4c(-c5ccc(Cl)cc5)c(C)nn34)CC2)cc1
 : 102, 105
COc1ccccc1NC(=O)c1c(NCc2ccc(OC)c(OC)c2OC)sc2c1CCC2
 : 110, 121
CCOC(=O)c1ccc2c(c1)N(CC(=O)N(C)c1ccccc1)C(=O)c1ccccc1S2
 : 102, 105
CCCC(=O)Nc1ccccc1C(=O)OCc1cc(=O)n2nc(C(C)C)sc2n1
 : 107, 98

(continued)
Order of values – Polio RdRp inh, Polio RdRp inh intensity
Cc1ccc(Nc2c3c(nc4nncn24)CCC3)cc1
 : 112, 111
Cc1ccc(C2=Nc3ccccc3N(CC(=O)NCc3ccc(F)cc3)C(=O)C2)cc1C
 : 109, 111
CCC1Oc2ccc(C)cc2N(CC(=O)NCc2ccc(OC)cc2)C1=O (configuration not stated)
 : 102, 104
CCOCCc1nn2c(=O)cc(COC(=O)C3CCCCC3)nc2s1
 : 108, 113
CCc1sc(Nc2ccc(Cl)cc2)nc1-c1cc2cccc(OC)c2oc1=O
 : 111, 108
COC(=O)c1ccc([C@H]2Nc3ccc(S(=O)(=O)Nc4ccc(C)cc4)cc3[C@H]3C=CC[C@H]32)cc1
 : 120, 131
CCOc1cccc(C2c3c(oc4ccc(F)cc4c3=O)C(=O)N2CCc2ccc(OC)cc2)c1 (configuration not stated)
 : 108, 112
CC(C)c1ccc(Nc2sc(C(=O)c3ccccc3)c(N)c2S(=O)(=O)c2ccccc2)cc1
 : 106, 113
CC(=O)c1cccc(NC(=O)c2ccc3c(c2)CCN3S(=O)(=O)c2ccccc2)c1
 : 102, 101
CN(C)S(=O)(=O)c1ccc2c(c1)nnn2CCNC(=O)Nc1ccc(Br)cc1
 : 111, 112

Rewritten as labelled records: part of the list above
COC(=O)c1ccc([C@H]2Nc3ccc(S(=O)(=O)Nc4ccc(C)cc4)cc3[C@H]3C=CC[C@H]32)cc1
  Polio RdRp inh: 120	Polio RdRp inh intensity: 131

CCc1sc(Nc2ccc(Cl)cc2)nc1-c1cc2cccc(OC)c2oc1=O
  Polio RdRp inh: 111	Polio RdRp inh intensity: 108

Cc1ccc(C2=Nc3ccccc3N(CC(=O)NCc3ccc(F)cc3)C(=O)C2)cc1C
  Polio RdRp inh: 109	Polio RdRp inh intensity: 111

CCC1Oc2ccc(C)cc2N(CC(=O)NCc2ccc(OC)cc2)C1=O (configuration not stated)
  Polio RdRp inh: 102	Polio RdRp inh intensity: 104

Further entries:
Order of values – Polio RdRp inh, Polio RdRp inh intensity
Cc1ccc(NCc2ccccc2-c2nnc(-c3ccccc3Cl)o2)c(C)c1
 : 106, 108
O=C(Cn1cc(SCc2ccccc2F)c2ccccc21)N1CCCCCC1
 : 114, 109
CCOC(=O)N1CCC(NC(=O)c2cnn(-c3ccc(C)cc3)c2C2CCN(C(=O)OC(C)(C)C)CC2)CC1
 : 107, 109
Cc1nc2ccccn2c(=O)c1NC(=O)c1c(F)cccc1F
 : 106, 117
Cc1ccccc1-n1c(SCc2ccc(Cl)cc2)nc2[nH]ncc2c1=O
 : 108, 103
Cc1csc2nc(COc3ccccc3NC(=O)c3ccco3)cc(=O)n12
 : 114, 109
COc1ccc(-n2c(=O)c3sc4ccccc4c3n(CC(=O)N3CCCC3)c2=O)cc1
 : 114, 111
CCc1ccccc1NC(=O)Cn1cc2c(n1)CCC(C)C2 (configuration not stated)
 : 104, 106
CCOC(=O)Cn1c(CN2CCN(c3ccc(OC)cc3)CC2)nc2c1c(=O)[nH]c(=O)n2C
 : 101, 103
CCc1nn(CC(=O)NCCN(CC)CC)c(=O)c2cc3occc3n12
 : 108, 111

(cont.)
Compound	Polio RdRp inh	Polio RdRp inh intensity
CCOC(=O)C1CCN(c2nc3ccccc3nc2Cl)CC1	111	113
CCOC(=O)C1=C(CN2CCN(c3ccccc3F)CC2)NC(=O)NC1c1ccc(OC)cc1 (configuration not stated)	107	110
COc1cc2ncc3c(-c4ccccc4)nn(CC(=O)NC4CCCCC4)c3c2cc1OC	97	95
COc1ccc(-c2cn3nc(N4CCCC(C(=O)Nc5ccccc5F)C4)sc3n2)cc1 (configuration not stated)	114	110
Cc1ccc(NC(=O)c2ccc(CN3C(=O)CCn4nc(C)cc43)cc2)c(Cl)c1	100	108
COc1ccc2c(c1)c1c(c(=O)n(-c3cccc(Cl)c3)c(=O)n1CC(=O)N1CCCC1)n2C	106	110
COc1ccc(N2CCN(c3cc(C)nc4nc(-c5ccc(C)cc5)nn34)CC2)cc1	107	106
Cc1cc2nc(-c3cc(NC(=O)c4cc5ccccc5o4)ccc3Cl)oc2cc1C	111	112
CC(C)CNC(=O)N1[C@H](c2cccs2)[C@@H](C)C(=O)[C@@H](C)[C@@H]1c1cccs1	109	114
CCCCN(Cc1cccs1)S(=O)(=O)c1cc(-c2cc(C)no2)ccc1C	103	110
CCc1ccc(-c2nc(CN3CCCC(C(=O)N4CCN(c5cc(Cl)ccc5C)CC4)C3)c(C)o2)cc1 (configuration not stated)	108	108
CCOC(=O)C1=C(CN2CCN(c3ccc(OC)cc3)CC2)NC(=O)NC1c1ccc(Cl)cc1 (configuration not stated)	106	109
COc1ccc(Cn2ccc3nc(C)c(C(=O)Nc4cccc(SC)c4)cc3c2=O)cc1	105	112
COc1ccccc1N(CC(=O)NCCSCc1ccc(Cl)cc1)S(C)(=O)=O	106	105
Cc1ccc2nc(-c3cccnc3)c(Nc3ccc(C(C)C)cc3)n2c1	110	111
CSc1nnc2n(-c3cccc(C)c3)c(=O)c3c4c(sc3n12)CCCC4	105	107
Cc1cc(C)cc(NS(=O)(=O)c2ccc(-c3cc(C)no3)s2)c1	107	107
Cn1ccc2c(OCC(=O)Nc3ccc([N+](=O)[O-])cc3)cccc2c1=O	114	101
COc1cc(NC(=O)CSC2=Nc3ccccc3N=C(c3ccc(F)cc3)C2)cc(OC)c1	113	116
CCc1nc(SC)ncc1C(=O)Nc1ccc(Cl)cc1C(=O)c1ccccc1	109	112
Cc1ccc(NC(=O)c2oc3c(c2C)-c2[nH]ncc2CC3)c(Cl)c1	106	116
CCc1nnc2c3ccccc3nc(Nc3ccccc3OC)n12	106	105
O=C(c1ccc2c(c1)N(Cc1ccccc1)C(=O)c1ccccc1S2(=O)=O)N1CCC(Cc2ccccc2)CC1	108	110
Cc1ccc(NC(=O)C(=O)NCC(c2cccnc2)N2CCN(c3ccccc3F)CC2)cc1Cl (configuration not stated)	109	111
Nc1ncc(S(=O)(=O)NCc2ccc(Cl)cc2)cn1	106	109

Other compounds.
Compound	Polio RdRp inh	Polio RdRp inh intensity
CC(=O)c1ccc(N2CCN(C3C(=O)c4ccccc4N3C(C)=O)CC2)cc1 (configuration not stated)	103	110
CCOc1cc(Cn2c(-c3ccc(O)c(OCC)c3)nc3ccccc32)ccc1O	112	111
CC(=O)c1ccc(NS(=O)(=O)c2ccc3[nH]c(=O)[nH]c3c2)cc1	105	109
CCOc1ccc(NC(=O)CC2C(=O)N(c3cccc(C)c3)C(=O)N2CCC2=CCCCC2)cc1 (configuration not stated)	108	102
CCc1cccc(NC(=O)CSc2ncccc2C(=O)Oc2ccccc2Cl)c1	109	105
CCOC(=O)c1c(C)[nH]c(C)c1S(=O)(=O)N1CCCC(C(=O)NCc2ccc(Cl)cc2)C1 (configuration not stated)	106	114
COc1cccc2c1ncc1c(-c3ccc(C)cc3)nn(-c3ccc(F)cc3)c12	102	106
FC(F)(F)c1ccc2c(c1)ncc1c(-c3ccccc3)nn(-c3ccccc3)c12	106	106
COc1ccccc1C(=O)NC1(C(F)(F)F)NC(=O)N(CCc2ccccc2)C1=O (configuration not stated)	107	109
O=C(c1ccc2c(c1)N(Cc1ccccc1F)C(=O)c1ccccc1S2(=O)=O)N1CCC(Cc2ccccc2)CC1	103	110
COc1ccc(OC(=O)c2cc(-c3ccc4c(c3)OCCO4)on2)cc1	107	103
Cc1cc(C)cc(NC(=O)CSc2nc(=O)[nH]c3c2CCC3)c1	111	99
COc1ccc(NC(=O)c2ccc3c(=O)n4nc(Nc5cccc(Cl)c5C)sc4nc3c2)cc1	104	107
COc1ccccc1-c1nc(SCC(=O)Nc2ccc(C)c(C)c2)n[nH]1	106	108
CC(=O)c1cccc(NC(=O)CSc2nc(=O)n(Cc3ccco3)c3c2CCC3)c1	109	109
CCOC(=O)c1c(C)[nH]c(C)c1S(=O)(=O)N(C)CC(=O)Nc1ccc(CC)cc1	117	114
COC(=O)c1ccccc1NC(=O)Cn1nc(C(F)(F)F)c2c1CCCC2	107	105
CC(C)NC(=O)c1sc2ncccc2c1-n1cccc1	114	106
COc1ccc(CNC(=O)c2nn(C)c3c2CS(=O)(=O)c2ccccc2-3)cc1	104	103
COc1cccc(-c2nc(SCC(=O)Nc3ccc4c(c3)OCO4)c(-c3ccccc3)[nH]2)c1	113	112
CC(C)N(Cc1ccccc1)C(=O)CN1C(=O)COc2ccc(S(=O)(=O)NC3CCCC3)cc21	104	102
O=C(CC1C(=O)N(c2ccccc2)C(=O)N1CCc1cccs1)Nc1ccc(F)cc1 (configuration not stated)	102	106
O=C(CSc1cn(CC(=O)N2CCCCC2)c2ccccc12)NCc1ccccc1	113	106

Compound activity (PubChem)
